Compound activity (PubChem)
MT1-MMP act inh = MT1-MMP (human) activation inhibition | HT1080 RFP-PRO-GFP cells, GFP/RFP ratio fluorescence, overnight; percent of plate control window, DMSO zero | GFP/RFP ratio change, % at 20 µM | 0.061% of 360,000 active;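 active means GFP/RFP ratio change of at least 30% with cell ATP level not reduced by more than half and red fluorescence within 50% of control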; further: strong numbers were not always called active
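Assay system: RFP-PRO-GFP reporter HT1080 cells; read-out basis: GFP/RFP fluorescence ratio; benchmarks: DMSO wells and RFP-L50D-GFP cells; doses: 20 µM single dose, 1% DMSO; schedule: overnight cell settling, then overnight compound exposure, 37 °C, 5% CO2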
Env fusion inh = HIV envelope-mediated fusion inhibition | HeLa-JRFL Env/CEM21 cell fusion, luciferase | inhibition, % at 12.3 µM | 1.1% of 360,000 active;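 active means mean replicate inhibition score of at least 50 and every replicate individually at or above 50; inconclusive means only one of the two criteria met; inactive means mean below 50 and not all replicates reaching 50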;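 further: 0% = plate neutral controls and 100% = maraviroc near 300 nM; one replicate is shown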
PABP polyA inh = blocks human PABP binding to poly(A) RNA; fluorescence polarization; inhibition, % at 35 µM; 1% of 290,000 active; AID 2014;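 active means 50% or more with normal probe brightness, or confirmed in later tests; inconclusive means above 50% with abnormal brightness, or retests that disagree; inactive means below 50% or failed in later tests; about a fifth of its hits are not listed in these tables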;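 further: calls also rest on retests at 20 µM and on dose response follow-up; controls were probe without protein and protein plus probe with vehicle; some compounds called inactive have numbers as strong as hits; many hits fall short of the cut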
eIF4H FP inh = inhibitors of RNA binding by human eIF4H; Q15056; eIF4H fluorescence polarization binding assay; inhibition, % at 35 µM; 0.94% of 290,000 active; AID 2012;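 active means 50% or more with normal probe brightness, or confirmed in later tests; inconclusive means above 50% with abnormal brightness, or retests that disagree; inactive means below 50% or failed in later tests; about a fifth of its hits are not listed in these tables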;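 further: calls also rest on retests at 20 µM and on dose response follow-up; 0% = protein and probe with vehicle and 100% = probe without protein; strong numbers were not always called active; many hits fall short of the cut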
Rce1 inhib = yeast Ras-converting enzyme inhibition. Q03530. yeast membranes, quenched prenylated peptide cleavage fluorescence. calls only. 0.27% of 290,000 active. AID 2563;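 active means fall in fluorescence gain of 50% or more versus controls, with final raw signal at or below 3038400; inconclusive means same 50% fall but final raw signal above 3038400; inactive means fall in fluorescence gain under 50%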;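 further: plate controls were neutral control wells for no effect and wells lacking membranes for full effect; tested at 10 µM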
Target sequence (Q03530 whole entry, looked up): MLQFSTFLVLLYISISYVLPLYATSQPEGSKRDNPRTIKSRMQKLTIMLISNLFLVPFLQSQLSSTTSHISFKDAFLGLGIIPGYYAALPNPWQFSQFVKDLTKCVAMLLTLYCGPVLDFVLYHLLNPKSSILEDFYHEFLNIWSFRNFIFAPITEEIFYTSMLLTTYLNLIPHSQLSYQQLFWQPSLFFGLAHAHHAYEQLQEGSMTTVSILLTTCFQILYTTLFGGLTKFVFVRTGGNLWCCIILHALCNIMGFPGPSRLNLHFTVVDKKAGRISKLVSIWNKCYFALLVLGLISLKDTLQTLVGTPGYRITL
CSC inhib = cancer stem cell inhibition | cancer stem cell-like cells viability, luminescence | inhibition, % at 7.5 µM | 1.1% of 300,000 active | AID 2717;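 active means mean at 75% or more and at least half the replicates too; inconclusive means mean and replicates disagree; tested in HMLE shEcad cells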;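 further: 0% = median of negative and 100% = median of positive control wells; the first replicate is given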
UUG fidelity = yeast start codon fidelity modulation. S. cerevisiae UUG-firefly luciferase reporter, luminescence/redox ratio. 0.13% of 350,000 active. activity score, % at 18.7 µM;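 active means replicate mean at a twofold rise or more, about +100% in these data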;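 further: firefly luciferase made from a UUG start codon reports start codon fidelity; reporter light over untreated wells divided by growth signal over untreated wells; some hits fall short of that in this replicate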
MT1-MMP act inh RFP = also measured in MT1-MMP act inh; calls as there; RFP signal change, %; measured here: RFP expression control read;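 0 = vehicle wells; hits needed this value within 50% of zero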
The depositor's hits bear a star; i = inactive; ? = inconclusive; / = no result given. A portion of the library; count on the stated rates, not on these rows.

smiles	MT1-MMP act inh	MT1-MMP act inh RFP	Env fusion inh	PABP polyA inh	eIF4H FP inh	Rce1 inhib	CSC inhib	UUG fidelity
O=C(CN1C(=O)C2CC=CCC2C1=O)N1CCN(S(=O)(=O)c2ccccc2)CC1 (stereo not drawn)	0	0	8	/	/	/	-12	-10
Cc1cc(OCC(=O)NCCCN2CCCC2=O)c2c(C)c(C)c(=O)oc2c1	4	3	7	0	-6	i	-15	18
N#Cc1c(N2C(=O)Nc3ccccc3N2O)sc2c1CCCCCC2	4	3	/	0	-3	i	8	-14
Cc1cccc(C(=O)N2CCCCCC2)c1[N+](=O)[O-]	0	1	16	-12	-10	i	1	/
O=C(O)c1ccccc1C(=O)NNc1cccc(Cl)n1	-4	6	-60	2	-4	i	-3	/
CCOC(=O)C1CCN(C(=O)CSc2c3c(nc4ccccc24)CCC3)CC1	-4	-2	0	11	-5	i	10	/
Cc1noc(C)c1C(=O)OC(C)C(=O)Nc1ccc2c(c1)OCO2 (stereo not drawn)	2	3	/	/	/	/	-2	-10
COc1ccccc1C(=O)NC(=S)Nc1ccc(N2CCOCC2)cc1	2	-5	-30	/	/	/	/	-16
COc1ccc(S(=O)(=O)N(C)c2ccc(C(=O)N3CCCC3)cc2)cc1	3	2	8	-7	1	i	-7	/
CCC(Oc1ccccc1)C(=O)Nc1cc(C)on1 (stereo not drawn)	2	3	-63	-8	-6	i	-12	11
COc1ccc(Cc2nnc(SCC(=O)Nc3ccccc3C#N)o2)cc1	-1	2	2	-8	-9	i	8	-23
CN(C)S(=O)(=O)c1ccc(NC(=O)CSc2n[nH]c(=O)n2C2CC2)cc1	2	-1	-4	-9	1	i	-5	-3
COC(=O)C1=C[C@@H](C(=O)OC)[C@@H]2C3=C(C(=O)C2(C)C)[C@H](C)n2c(=O)n(-c4ccccc4)c(=O)n2[C@@H]3C1	4	2	12	/	/	i	/	2
O=C(Nc1cccc(-c2cccc(Cl)c2)c1)C1CCN(Cc2nccs2)CC1	-3	-16	29	/	/	/	/	-16
COc1ccc(OCC(=O)Nc2ccc(OC)c(S(=O)(=O)N3CCCCC3)c2)cc1	-2	-18	15	/	/	i	35	/
O=C(Nc1ccccc1)c1ccc2nc(-c3ccco3)c(-c3ccco3)nc2c1	-3	-5	-34	71*	100*	i	8	-15
CC(C)NCc1cccc([N+](=O)[O-])c1	4	7	/	-7	7	i	-13	/
O=C(OCC(O)CN1CCCCC1)C12CC3CC(CC(C3)C1)C2 (stereo not drawn)	4	3	/	12	-2	i	8	-20
Cc1cccc(Oc2ccccc2NC(=O)C2=COCCO2)c1	-2	1	/	/	/	/	2	-9
CCOC(=O)CSc1nc2ccccc2c(=O)n1-c1ccc(C(=O)NCCOC)cc1	-4	-6	-169	3	-5	i	8	-2
CC(O)(c1ccc(F)c(F)c1)c1nc(/C=C/c2ccc(C(F)(F)F)cc2)cs1 (stereo not drawn)	0	0	-8	/	/	/	/	-8
COc1ccc(-c2nc(CS(=O)CC(=O)NCc3ccccn3)c(C)o2)cc1 (stereo not drawn)	3	5	/	-18	15	i	-9	-27
COc1ccc(C2C(C(C)=O)=C(O)C(=O)N2c2ccc(F)cc2)cc1 (stereo not drawn)	3	-8	-4	5	8	i	-4	-22
O=C(OCC(=O)c1ccc(Cl)cc1Cl)c1cnccn1	7	7	12	9	-13	i	-3	-23
CCOC(=O)C1CCCN(c2c(NCCCN(CC)c3cccc(C)c3)c(=O)c2=O)C1 (stereo not drawn)	-3	4	/	7	-10	i	-7	-8
CCOc1ccc(CCNS(=O)(=O)c2c(C)nc3scc(C)n3c2=O)cc1OCC	11	-1	-1	10	0	/	-3	2
Cc1ccc(-c2nn(CCC#N)cc2C=C(C#N)C#N)cc1	2	5	/	18	0	i	/	-7
O=C(CN1C(=O)NC2(CCCC2)C1=O)N1CCN(c2ccccc2O)CC1	-1	0	0	/	/	i	10	/
CN1C(=O)C(C(=O)Nc2ccccc2F)c2ccccc21 (stereo not drawn)	-1	2	-2	-7	-4	i	1	/
CCOc1cc(/C=N/n2cnnc2)c(Br)cc1O	-4	0	-24	-11	-4	i	-8	-6
Cc1nc2ccc(NC(=O)N3CCCCC3)cc2s1	-6	2	-1	23	-4	i	3	-25
Cc1ccc(/C=C/C(=O)N2CCN(c3ncccn3)CC2)o1	-2	2	-15	4	14	i	11	/
COc1ccccc1N1CCN(c2cc(=O)n(-c3ccc(Cl)cc3)c(=O)[nH]2)CC1	-4	-7	-19	16	10	i	-3	-2
CC(CCC(=O)O)C1CCC2C3CCC4CC(O)CCC4(C)C3CC(O)C12C (stereo not drawn)	4	0	-22	/	/	/	/	11
Cc1c(CCC(=O)N2CCC(C(=O)O)CC2)c(=O)oc2cc3oc4c(c3cc12)CCCC4	3	-1	/	3	-6	i	10	-6
O=C(COc1ccc2c(c1)OCO2)NC12CC3CC(CC(C3)C1)C2	-8	-6	/	-2	3	/	68	59

Looked up one by one from above, four records:
smiles	MT1-MMP act inh	MT1-MMP act inh RFP	Env fusion inh	PABP polyA inh	eIF4H FP inh	Rce1 inhib	CSC inhib	UUG fidelity
Cc1c(CCC(=O)N2CCC(C(=O)O)CC2)c(=O)oc2cc3oc4c(c3cc12)CCCC4	3	-1	/	3	-6	i	10	-6
CCOc1cc(/C=N/n2cnnc2)c(Br)cc1O	-4	0	-24	-11	-4	i	-8	-6
Cc1ccc(-c2nn(CCC#N)cc2C=C(C#N)C#N)cc1	2	5	/	18	0	i	/	-7
Cc1ccc(/C=C/C(=O)N2CCN(c3ncccn3)CC2)o1	-2	2	-15	4	14	i	11	/

(continued)
smiles	MT1-MMP act inh	MT1-MMP act inh RFP	Env fusion inh	PABP polyA inh	eIF4H FP inh	Rce1 inhib	CSC inhib	UUG fidelity
COC(=O)NCCOC(=O)N(O)c1ccc(Br)cc1	19	-1	/	5	-6	i	4	4
O=C(c1ccc(COc2ccc(F)cc2)o1)n1cc(Br)cn1	-3	0	-57	-10	15	i	9	-12
O=C(COC(=O)c1ccccc1C(=O)c1ccccc1)NCc1ccc(F)cc1	5	4	20	5	-9	i	-2	9
Cc1ccc(S(=O)(=O)NN2C(=O)/C(=C/c3ccccn3)SC2=S)cc1	3	3	-11	-3	8	i	11	/
COc1ccc(Cl)cc1NC(=O)CN(C)CC(=O)Nc1cc(OC)c(OC)c(OC)c1	-8	-12	3	-14	2	i	52	-8
Cc1c(Nc2cc(N3CCCCCC3)c3nonc3c2[N+](=O)[O-])c(=O)n(-c2ccccc2)n1C	0	1	/	-4	-3	i	-2	-3
CCOc1ccc(S(=O)(=O)N2CCCCC2)cc1NC(=O)CCc1ccc(OC)cc1	-1	3	/	/	/	/	-8	-12
O=C(CCNC(=O)Cn1ccc2ccccc2c1=O)NCCN1CCN(c2ccccc2F)CC1	2	-15	/	/	/	i	-5	-9
O=C(c1ccc(S(=O)(=O)Nc2ccccc2)cc1)N1CCCCCCC1	4	-6	-8	4	-1	i	3	0
COc1ccc(-c2csc(NC(=O)c3ccco3)n2)cc1	6	2	/	0	12	i	-9	/
O=C(Nc1c(C(=O)N2CCOCC2)cnn1-c1ccccc1)c1ccco1	9	6	/	-9	-9	i	-9	-16
Cc1cc(C)cc(N(CC(=O)NC2CCCCC2)C(=O)CCC(=O)Nc2cc(C)ccn2)c1	3	2	/	-2	-10	/	/	-16
CSc1nc(N)nc(N(C)C)n1	1	4	-172	2	-2	/	-8	-15
CCC(=O)N1N=C(c2ccc(NS(C)(=O)=O)cc2)CC1c1ccc(N(C)C)cc1 (stereo not drawn)	4	3	-13	-5	1	i	8	/
COc1ccc(S(=O)(=O)N2CCC(C(=O)N3CCCC3)CC2)cc1C	-1	-4	-4	2	-12	i	-9	-12
O=C(CC1C[C@H](C(=O)N2CCCCC2)[C@@]2(CCc3ccccc3)c3[nH]c4ccccc4c3CCN2C1=O)NCc1ccco1 (stereo partly drawn)	-31	-31	-39	/	/	/	/	-8
O=C(N/N=C/c1ccc(O)cc1O)c1ccc(CN2C(=O)c3cccc4cccc2c34)cc1	-7	-9	10	-4	14	i	3	/
O=C(NCc1cccs1)c1cccnc1C(=O)O	2	-1	/	-2	-4	i	-2	/
CC(=O)c1ccc(OCC(C)C)c(Cc2c(O)nc(N)[nH]c2=O)c1	-2	6	4	-4	-2	i	0	/
CCOc1ccc(CCNC(=O)Cc2ccc(NC3=NC4CS(=O)(=O)CC4S3)cc2)cc1 (stereo not drawn)	11	9	-11	5	-2	i	/	-9
CCCC[n+]1ccc(-c2nc3ccc([N+](=O)[O-])cc3[nH]2)cc1	7	7	-33	1	5	i	20	/
CC(=O)NC(Cc1cc(C)ccc1C)C(=O)N1CCN(C(=O)c2ccc([N+](=O)[O-])cc2)CC1 (stereo not drawn)	1	0	8	3	-5	i	-4	-6
NC(=O)CN1C(=O)C2CCCCN2C(=O)c2ccccc21 (stereo not drawn)	8	3	-62	-3	-6	i	15	-16
CCOc1cccc2cc(C(N)=O)c(=NCc3ccccc3)oc12	-11	-2	?	2	1	i	2	16
CCCCNC(=S)Nc1cc(S(=O)(=O)N2CCCCC2)ccc1C	-3	-4	43	-8	-12	i	-1	-19
Clc1cccc(Cl)c1/C=N\Nc1nccs1	-2	-3	/	-3	-3	i	-4	-18
O=C(O)c1ccc(-n2nncc2-c2ccccc2)cc1	0	5	3	1	-8	i	3	-8
O=C1NC(=O)C2(CCCc3ccc([N+](=O)[O-])cc32)N1 (stereo not drawn)	2	2	18	/	/	/	/	-11
CCOc1ccc(Nc2cc(C)c3ccccc3n2)cc1	4	2	-67	-4	0	i	28	-6
Cc1ccc2nc(N3CCN(C(=O)c4ccc(F)cc4)CC3)c(C#N)cc2c1	-6	3	-5	-4	-7	i	-9	4
CCC(=S)/C=C1\Sc2ccc3ccccc3c2N1CCCS(=O)(=O)O	/	/	/	28	8	i	-3	/
C=CCn1c(/N=C/c2ccc(OC)cc2)nc2ccccc21	5	5	/	9	3	i	-7	-17
Oc1ccccc1C1CCCCC1c1ccccc1 (stereo not drawn)	-1	2	-2	-1	-2	i	76*	0
Cn1c(/C=C/c2ccc(Br)cc2)nc2ccccc2c1=O	-3	2	-66	-10	-2	i	8	-8
Cc1ccc(C(=O)NCc2ccc(Cl)cc2)o1	-1	2	-55	-5	-8	i	-10	-17
CC(C)NCCCOc1ccc(C(C)(C)c2ccccc2)cc1	9	12	-85	30	7	i	-25	-9
COC(=O)C1=C(C)NC(=O)NC1c1ccc(OC)c(OC)c1 (stereo not drawn)	2	9	-8	/	/	/	/	-14
OC(c1ccc(F)cc1)c1nc(-c2csc3ccccc23)cs1 (stereo not drawn)	1	-2	-3	/	/	/	/	-11
CSc1ccc(C#N)cc1NC(=O)c1ccc(Cl)nc1	0	3	4	-2	-1	i	/	/
C#CCOCCOCCOCCNc1nc(N2CCN(C(=O)[C@H](CCC(=O)O)n3cc(C(N)CO)nn3)CC2)nc(N2CCN(C(=O)[C@H](CCC(=O)O)n3cc(C(N)CC(C)C)nn3)CC2)n1 (stereo partly drawn)	/	/	/	23	12	i	/	/
O=C(O)CCC1(c2ccccc2)NC(=O)NC1=O (stereo not drawn)	4	4	-5	11	-4	i	-8	/
COCCn1nnnc1C(c1ccc(C(F)(F)F)cc1)N1CCOCC1 (stereo not drawn)	12	5	-78	-2	-11	i	3	-9
